Compound activity as filed in PubChem.
CBX7 inh: inhibitors of human CBX7 binding to H3K27me3 peptide; O95931; AlphaScreen His6-CBX7 / biotin-H3K27me3 peptide binding; hits give low values; normalised signal (fraction of DMSO) (test concentration not listed); actives 1.1% (n = 66,000); AID 1224903; in the data active means normalised signal below about 0.5;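 further: 100 nL library stock added to about 20 µL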
Target sequence (O95931 whole entry, looked up): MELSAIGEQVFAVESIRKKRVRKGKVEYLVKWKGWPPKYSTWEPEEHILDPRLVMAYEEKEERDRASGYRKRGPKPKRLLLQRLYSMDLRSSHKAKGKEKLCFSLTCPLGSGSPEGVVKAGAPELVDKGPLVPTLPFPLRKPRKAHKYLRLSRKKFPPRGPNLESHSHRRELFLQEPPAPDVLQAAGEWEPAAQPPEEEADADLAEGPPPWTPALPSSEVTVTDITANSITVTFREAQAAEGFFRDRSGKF
CBX7 inh z-score: further read-out of CBX7 inh, marked with its call; z-score; measured here: z-score of CBX7 signal; some inactives read as strong as hits; reference of the scale not given here;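 same signal on another scale; lower means less binding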
Numbers without * were called inactive; & = joins results of further samples. A portion of the library (hit frequency here may not be typical).

Fields – CBX7 inh z-score	CBX7 inh
- COc1cccc(-c2nn(C)c3sc(C(=O)N4CCN(c5cccc(C)c5C)CC4)cc23)c1
    -4.86	0.826
- CC1(C)CC(=O)c2cc(OCC(=O)N3CCN(c4ccccc4F)CC3)ccc2O1
    -1.66	0.837
- COc1ccc(OCC(=O)Nc2cccc(-c3nc4ncccc4o3)c2C)cc1
    0.655	1.08
- Cc1ccc(-c2cc(C(=O)Nc3ccccc3Cl)c3ccccc3n2)cc1
    -0.726	0.914
- COc1cc(Cl)c(C)cc1NC(=O)c1cc(C)nn1-c1ccccc1
    -0.101	0.997
- O=C(Nc1cccc(O)c1)c1c(O)c2ccccc2[nH]c1=O
    -1.59	0.89
- c1ccc2c(c1)c1ccccc1n2CCCN1CCCCC1
    -0.798	0.959
- CCOc1ccc(C(=O)NCCc2cc3ccc(C)cc3[nH]c2=O)cc1OCC
    1.29	1.03
- O=C(CCCn1c(=O)[nH]c2ccsc2c1=O)NCc1cccnc1
    0.966	1.13
- CCCCCCOc1ccc(N2C(=O)CC(N3CCN(c4ccccc4)CC3)C2=O)cc1 (stereo not drawn)
    0.933	1.1
- CC(=O)N1c2ccc(S(=O)(=O)NCCN3CCN(c4ccccc4F)CC3)cc2CC1C (stereo not drawn)
    1.94	1.06
- CCOc1ccc(CC(=O)NCCc2cc3c(C)ccc(C)c3[nH]c2=O)cc1
    0.249	1.01
- Cc1onc(-c2ccccc2Cl)c1C(=O)Nc1ccccc1C(=O)O
    0.00736&1.79	1&1.08
- COc1ccc(S(=O)(=O)NCc2ccc(C(=O)NCCc3ccc(Cl)cc3)cc2)cc1
    -0.021	0.995
- CCN1CCN(C(=O)CN2C(=O)CSc3ccc(S(=O)(=O)N4CCOCC4)cc32)CC1
    2.68	1.1
- Cc1[nH]nc(-c2ccc(O)cc2O)c1-c1ccc(F)cc1
    -3.64	0.765
- COc1ccc(NC(=O)C(CC(C)C)NS(=O)(=O)c2ccc3nc(C)sc3c2)cc1 (stereo not drawn)
    -1.04	0.966
- Cc1ccc(-c2nnc(Nc3ccc(C(=O)N4CCCCC4)cc3)c3ccccc23)cc1S(N)(=O)=O
    -4.83	0.743
- COc1ccc(C)cc1NC(=O)c1n[nH]c(=O)c2ccccc12
    -0.808	0.98
- C=CCN1C(=O)CSc2ccc(C(=O)NC3CCCCC3)cc21
    1.88	1.17
- CCOCCCNC(=O)C1CCN(c2nnc(-n3cccc3)s2)CC1
    1.45	1.14
- O=C(Nc1ccc2oc(-c3ccccc3F)nc2c1)c1ccc(Br)cc1
    3.13	1.06
- c1ccc2c(c1)nc(NCc1ccc3c(c1)OCO3)n2CCN1CCOCC1
    -0.0176	0.999
- COc1ccccc1NC(=O)Nc1nnc(N(C)Cc2ccccc2)s1
    -0.318	0.919
- COCCNC(=O)CN1C(=O)CSc2ccccc21
    3.21	1.11
- O=C1CN(C(=O)c2ccc3c(c2)OCO3)C(c2ccccc2)c2cc(Cl)ccc2N1 (stereo not drawn)
    -1.04	0.891
- CCOC(=O)N1CCC(NC(=O)c2ccc3nc(N4CCOCC4)sc3c2)CC1
    1.68	1.18
- CC1CCN(S(=O)(=O)c2ccc3ncn(CC(=O)Nc4nc5ccccc5s4)c(=O)c3c2)CC1
    0.908	1.03
- CCOC(=O)c1cnc2c(Cl)cccc2c1Nc1ccc2c(c1)OCCO2
    -3.76	0.651
- CC(=O)NCCCc1nc2ccccc2n1CC(C)C
    0.233	1.01

Three structures already listed, ordered by molecular weight, falling.
Fields – CBX7 inh z-score	CBX7 inh
- O=C1CN(C(=O)c2ccc3c(c2)OCO3)C(c2ccccc2)c2cc(Cl)ccc2N1 (stereo not drawn)
    -1.04	0.891
- CCOC(=O)N1CCC(NC(=O)c2ccc3nc(N4CCOCC4)sc3c2)CC1
    1.68	1.18
- COc1cc(Cl)c(C)cc1NC(=O)c1cc(C)nn1-c1ccccc1
    -0.101	0.997

(cont.)
Fields – CBX7 inh z-score	CBX7 inh
- Clc1ccc(-c2nc(N3CCN(c4ccccc4Cl)CC3)nc3ccccc23)cc1
    36.8	1.89
- CCOc1ccccc1NC(=O)c1c(NC(=O)Cc2ccc(OC)cc2)sc2c1CCCC2
    2.35	1.07
- CCOCCCNc1c(-c2ccccc2)nc2ccc(Br)cn12
    -0.209	0.88
- Cc1ccc(N2C(=O)Cn3cccc3C2C(=O)NC2CCC(C)CC2)cc1 (stereo not drawn)
    -1.58	0.917
- Cc1ccc(CCN2CC(C(=O)N3CCN(C)CC3)CC2=O)cc1 (stereo not drawn)
    0.593	1.02
- COc1ccccc1N1CCN(C(=O)C(NS(=O)(=O)c2ccc3nc(C)sc3c2)C(C)C)CC1 (stereo not drawn)
    0.453	1.03
- COc1ccc(C(=O)NCC2(c3ccccc3)CCOCC2)cc1OC
    0.457	1.03
- N#Cc1cc(N2CCOCC2)cc2ccccc12
    5.76	1.2
- Nc1n[nH]c(CC(=O)N(Cc2ccccc2)C2(C(=O)Nc3ccccc3)CCCCC2)n1
    -5.5	0.697
- O=C(CCN1C(=O)COc2ccccc21)NCc1ccc(F)cc1
    -0.307	0.99
- CCCCc1ccc(Nc2nc(C)cc(-n3nc(C)cc3C)n2)cc1
    4.64	1.33
- Cn1cc(C(=O)NCCCN2CCCC2)c2c3ccccc3n(C)c2c1=O
    -0.0848	0.996
- Cc1ccc(-c2[nH]c(-c3c[nH]c4ccccc34)nc2-c2ccccc2)cc1
    -0.62*	0.377*
- O=C(Nc1ccc(Cl)cc1)c1cc(Cl)ccc1NS(=O)(=O)c1cccnc1
    1.29	1.04
- CCOc1ccc(NC(=O)CSc2nc(NCCc3ccccc3)c3ccccc3n2)cc1
    1.49	1.03
- O=C(c1ccc2nc(N3CCOCC3)sc2c1)N1CCCCC1
    0.107	1.04
- CCc1ccc2nc(Nc3nc(COC)cc(=O)[nH]3)nc(C)c2c1
    -0.392	0.988
- Cn1c(=O)cc(OCC(=O)Nc2ccc(Oc3ccccc3)cc2)c2ccccc21
    0.635	1.04
- COc1ccc2c(=O)c(-c3ccccn3)coc2c1
    2.12	1.09
- Fc1ccccc1-c1nc(Nc2ccc(C(F)(F)F)cc2)c2ccccc2n1
    1.93	1.07
- Cc1[nH]c2ccc(OC(F)(F)F)cc2c1CCNC(=O)c1ccccc1Cl
    -2.74	0.811
- C=CCn1c(NCc2cccs2)nc2ccccc21
    -1.96	0.896
- CCCCN(C)CCCNC(=O)c1cc(Nc2ccccc2OC)nc2ccccc12
    0.185	1.19
- CC(=O)Nc1ccc(NC(=O)C2CC(=O)N(c3ccc(F)cc3)C2)cc1 (stereo not drawn)
    1.35	1.13
- Cn1cc(CCC(=O)NC2CCCCCC2)c2ccccc21
    -1.89	0.824
- Cc1noc(C)c1S(=O)(=O)N1CCCC(C(=O)NCCc2ccc(Cl)cc2)C1 (stereo not drawn)
    3.47	1.22
- COc1ccc(C2(C(=O)NCC3(c4ccccc4)CCOCC3)CCCC2)cc1OC
    -0.415	0.989
- CCCCN(C)CCCNC(=O)CC(C(=O)N1CCc2ccccc21)n1ccnc1 (stereo not drawn)
    -0.287	0.987
- COc1ccccc1NC(=O)CSc1nnc(CNC(=O)COc2ccc(Cl)cc2)o1
    0.57	1.02
- O=S1(=O)N=C(Nc2cc(C(F)(F)F)ccc2Cl)c2ccccc21
    0.536	1.02

Structural class, the entries above with a CF3 group.
Fields – CBX7 inh z-score	CBX7 inh
- Fc1ccccc1-c1nc(Nc2ccc(C(F)(F)F)cc2)c2ccccc2n1
    1.93	1.07
- Cc1[nH]c2ccc(OC(F)(F)F)cc2c1CCNC(=O)c1ccccc1Cl
    -2.74	0.811
- O=S1(=O)N=C(Nc2cc(C(F)(F)F)ccc2Cl)c2ccccc21
    0.536	1.02

Compound profiles, as listed above:
Results for Cc1ccc(N2C(=O)Cn3cccc3C2C(=O)NC2CCC(C)CC2)cc1 (stereo not drawn) → CBX7 inh z-score = -1.58; CBX7 inh = 0.917
Results for O=C(CCN1C(=O)COc2ccccc21)NCc1ccc(F)cc1 → CBX7 inh z-score = -0.307; CBX7 inh = 0.99
Results for O=C(Nc1ccc(Cl)cc1)c1cc(Cl)ccc1NS(=O)(=O)c1cccnc1 → CBX7 inh z-score = 1.29; CBX7 inh = 1.04

(cont.)
Fields – CBX7 inh z-score	CBX7 inh
- COCCNC(=O)CNC(=O)c1nn(-c2ccc(OC)cc2OC)c(=O)c2ccccc12
    1.86	1.1
- CC1CC(C)CN(C(=O)c2ccc3c(c2)N(Cc2ccccc2)C(=O)c2ccccc2S3=O)C1 (stereo not drawn)
    -1.45	0.939
- COc1ccc(NC(=O)CCC(=O)Nc2ccc3nc(N4CCOCC4)cc(C)c3c2)c(OC)c1
    0.346	1.01
- Cc1cc(OCc2nc(-c3nonc3N)no2)ccc1Cl
    0.0467	1
- Cc1c(Cl)cccc1NC(=O)C1CC(=O)N(c2ccc(F)cc2)C1 (stereo not drawn)
    1.87	1.1
- COc1ccc(-c2noc(CCC(=O)NCCN3CCN(c4cccc(Cl)c4)CC3)n2)cc1
    -0.081	0.919
- Oc1ccc(-c2cc(-c3ccccc3Cl)c3cc(Br)ccc3n2)cc1
    -4.47	0.79
- CC(C)c1ccc(OCC(=O)N(Cc2ccc(N(C)C)cc2)C2CCS(=O)(=O)C2)cc1 (stereo not drawn)
    -2.22	0.752
- CC1=C(C(=O)Nc2ccc(C)cn2)C(c2cccnc2)C2=C(CC(C)(C)CC2=O)N1 (stereo not drawn)
    -0.324	0.988
- O=C(Nc1c(-c2cccs2)nc2ccccn12)c1cccc2ccccc12
    0.846	1.03
- COc1ccc(NC(=O)C2(S(=O)(=O)c3ccc(C)cc3)CC2)cc1OC
    -0.879	0.955
- CCC1Sc2ccccc2N(CC(=O)NCCC(C)C)C1=O (stereo not drawn)
    3.14	1.09
- CCc1ccccc1Nc1cc(C(=O)NCCN(CC)CC)c2ccccc2n1
    -0.483	0.968
- COc1ccc(N2CCN(C(=O)c3csc4c3CCCCC4)CC2)cc1
    -4.91	0.85
- COCc1nnc(NC(=O)c2ccc(S(=O)(=O)N3CC(C)OC(C)C3)cc2)o1 (stereo not drawn)
    -8.78	0.673
- O=S(=O)(c1ccccc1)c1nc(-c2ccccc2F)oc1N1CCCCCC1
    -0.532	0.98
- Cn1c(SCC(=O)Nc2ccccc2F)nnc1-c1cccnc1
    -0.556	0.984
- Cc1oc(-c2ccc(Cl)cc2)nc1CN1CCCC(C(=O)NCc2ccccc2)C1 (stereo not drawn)
    -0.127	0.995
- CN(Cc1ccccc1)C(=O)c1cc2c(s1)-c1ccccc1OC2
    7.2	1.25
- CCC(C)c1ccccc1OCC(O)CN1CCN(c2ccccc2OC)CC1 (stereo not drawn)
    -3.95	0.878
- Cc1ccc2oc(-c3ccc(Cl)c(NC(=O)COc4ccccc4C)c3)nc2c1
    2.98	1.31
- Cc1cccc(NC(=O)CSc2nnc(CNC(=O)c3cccs3)o2)c1C
    1.67	1.06
- Cc1cccc(-c2cc(C(=O)Nc3ccc(F)c(Cl)c3)c3ccccc3n2)c1
    -0.0587	0.999
- COc1cc2ccccc2cc1C(=O)Nc1ccc(-c2nc3ccc(C)cc3s2)cc1
    1.51	1.18
- N#Cc1nc(COc2ccc(F)cc2)oc1N1CCCC1
    -8.09	0.555
- COc1ccc(Br)cc1CNC(=O)Cc1c(C(=O)O)[nH]c2ccccc12
    0.775	1.03
- CCC1CCCCN1C(=O)CSc1nnc(-c2ccc(F)cc2)o1 (stereo not drawn)
    2.39	1.16
- Cc1ccc(-c2c3c(nc4ccccc24)CCN(CCCC(=O)c2ccc(F)cc2)C3)cc1
    -0.608	0.783
- CCOC(=O)c1cnc2cc(Cl)c(OC)cc2c1Nc1ccc(OC)c(Cl)c1
    -0.786	0.969
- Cc1ccccc1NC(=O)c1cc2c(n(-c3ccccc3)c1=O)CC(C)(C)CC2=O
    0.908	1.04
- CC12c3ccccc3C(c3ccccc31)C1C(=O)N(CCO)C(=O)C12 (stereo not drawn)
    -0.202	0.985
- Cc1cc(Br)ccc1NS(=O)(=O)c1cnc[nH]1
    -0.911	0.973
- Cc1cc(OCC(=O)Nc2ccc(O)c(-c3nc4ccccc4s3)c2)ccc1Cl
    0.194	1.01
- Cn1c(=O)c2cc(NCc3ccccc3)nnc2n(C)c1=O
    0.226	1.02
- O=C(NCc1ccc(F)cc1)C1CCC(=O)N1C1CCCC1 (stereo not drawn)
    1.11	1.02
- Cc1cc(C(=O)Nc2sc3c(c2C(N)=O)CCCC3)on1
    -2.01	0.858
- COc1ccc(-c2nc(C#N)c(NC3CCCCC3)o2)cc1
    0.271	1.02
- Cc1ccc(OCC(=O)Nc2ccc(Cl)c(-c3nc4ncccc4o3)c2)cc1
    -0.841	0.958
- Cc1ccc(C)c(NC(=O)CCc2c(C)nc3cc(-c4cccc(F)c4)nn3c2C)c1
    -0.725	0.956
- Cc1cccc(C)c1N1C(=O)C2C(C1=O)C1C=CC2C12CC2 (stereo not drawn)
    1.28	1.1
- CCCCC(=O)Nc1cccc(-c2nc3ncccc3o2)c1C
    0.396	1.01
- CN(C)CCn1c(C(=O)Nc2ccccc2)cc2ccccc21
    -0.235&-2.02	0.979&0.829
- COc1ccc(-c2nc(-c3ccc(C)cc3)no2)cc1
    -0.87	0.92
- O=C(Cn1cnc2scc(-c3ccccc3)c2c1=O)Nc1ccc(F)c(Cl)c1
    -0.666	0.975
- O=C1CC(c2cccc(F)c2)C2=C(CCCC2=O)N1 (stereo not drawn)
    -0.83	0.934
- O=C(c1cc(-c2ccc(F)cc2)on1)N1CCN(c2ccccc2)CC1
    0.155	1.12
- Cc1ccccc1OCc1nc(-c2nonc2N)no1
    -0.393	0.96
- Cc1ccc(CNC(=O)c2cc3c(s2)CN(Cc2ccccc2)C3)cc1
    -0.00372	1
- Cc1ccc(S(=O)(=O)NCCc2cc3ccc(C)c(C)c3[nH]c2=O)cc1
    -0.00898	0.999
- CC1CCN(c2nc3ccc(C(=O)NCc4ccccc4)cc3s2)CC1
    -0.223	0.99
- CCc1cccc(C)c1NC(=O)Nc1cccs1
    0.567	1.01
- Cc1nc2c3ccccc3nc(N3CCN(c4ccccc4)CC3)n2n1
    2.11	1.12
- CCCn1c(CCCNC(=O)c2cccs2)nc2ccccc21
    -0.946	0.941
